Bioassay records deposited in PubChem by several laboratories.
Mtb bLac sens = beta-lactam sensitization of Mtb H37Rv. 0.27% of 330,000 active. AID 434955. M. tuberculosis H37Rv growth with meropenem, percent inhibition; hits of this screen are not shown here. inhibition, % at 25 µM;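 active means about 74% or more and at least 40 points above the plate without the antibiotic, then above 30% in a dose series; inconclusive means first-round hits that could not be retested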;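 further: growth measured after seven days incubation then overnight dye step; 0% = bacteria only wells and 100% = bacteria with antibiotic; twin plates without the antibiotic show which effects depend on it; some results filed as inactive read as strong as hits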
YopH inh = YopH (Yersinia) phosphatase inhibition; fluorescence Ex485/Em525; inhibition, %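 (about 10 µM by stock and volumes)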; 0.16% of 140,000 active;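 active means inhibition of 50% or more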;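 further: controls were vehicle for no effect and minimum signal wells for full effect; inactives centre near -20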
Arbovirus inh = arbovirus infection inhibition; arbovirus infection cell-based antiviral screen; inhibition, % at 10 µM; 0.37% of 200,000 active;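 active means inhibition from about 30%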;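 further: bluetongue infection of BSR cells; cell survival read as ATP light after 72 h; 0% = infected wells without compound and 100% = uninfected wells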
RecA splice inh = inhibitors of M. tuberculosis RecA intein splicing | cell-free RecA intein splicing, fluorescence | inhibition, %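 (about 9 µM by stock and volumes)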 | 0.75% of 290,000 active; in the data active means inhibition above about 30%; inconclusive means no clear call, values can overlap the other calls;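 further: 0% = vehicle wells and 100% = reference inhibitor control wells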
Target sequence (P9WHJ3 whole entry, looked up, canonical isoform): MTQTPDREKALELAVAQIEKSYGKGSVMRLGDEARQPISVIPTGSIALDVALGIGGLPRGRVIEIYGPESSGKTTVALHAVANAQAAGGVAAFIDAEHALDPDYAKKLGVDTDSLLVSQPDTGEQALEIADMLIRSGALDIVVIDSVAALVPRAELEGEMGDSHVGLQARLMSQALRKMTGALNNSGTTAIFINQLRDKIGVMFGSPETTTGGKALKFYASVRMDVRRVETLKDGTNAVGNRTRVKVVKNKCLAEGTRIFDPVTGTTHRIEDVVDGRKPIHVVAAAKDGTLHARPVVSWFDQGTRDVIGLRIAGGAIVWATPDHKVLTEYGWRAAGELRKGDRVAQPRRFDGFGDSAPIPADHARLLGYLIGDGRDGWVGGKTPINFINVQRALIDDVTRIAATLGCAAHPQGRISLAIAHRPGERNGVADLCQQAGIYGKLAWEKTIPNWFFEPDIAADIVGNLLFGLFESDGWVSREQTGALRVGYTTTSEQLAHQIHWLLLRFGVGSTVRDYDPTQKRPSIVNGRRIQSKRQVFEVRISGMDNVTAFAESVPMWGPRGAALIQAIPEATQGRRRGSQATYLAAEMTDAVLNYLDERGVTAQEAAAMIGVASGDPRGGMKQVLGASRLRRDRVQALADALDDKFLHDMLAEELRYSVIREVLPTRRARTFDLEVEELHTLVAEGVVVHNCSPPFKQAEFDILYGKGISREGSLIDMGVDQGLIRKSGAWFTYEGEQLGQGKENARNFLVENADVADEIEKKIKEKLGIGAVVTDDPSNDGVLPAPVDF
Mtb H37Rv = M. tuberculosis H37Rv growth inhibitors, H37Rv strain (AID 1626); M. tuberculosis H37Rv growth inhibition; higher % means a stronger effect; 0.95% of 220,000 active; one-dose inhibition, % at 10 µM; IC50 in µM for titrated hits;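 active means confirmed in a dose series; inconclusive means inhibition above 80% but not taken into the dose series; inactive means below 80% or under 30% at every dose of the series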;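 further: bacteria incubated seven days before Alamar blue readout; 0% = bacteria only wells and 100% = bacteria with antibiotic wells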
Arbovirus inh repeat = second read-out of Arbovirus inh, no call of its own (marks repeat the call); inhibition, %; measured here: 10K subset replicate screen; many hits read low in the repeat;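 first of two repeat runs on a subset; 0% = infected and 100% = uninfected wells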
Starred values were filed as active, the others as inactive; i = inactive; ? = inconclusive; . = no result given. Some of the compounds tested (hit frequency here may not be typical).

SMILES	Mtb bLac sens	YopH inh	Arbovirus inh	RecA splice inh	Mtb H37Rv	others
Cc1ccc(-c2nnn(CC(=O)N(CCO)C(C(=O)NC(C)(C)C)c3ccncc3)n2)cc1 (centres undefined)	-8	-22	14	1.9	-12%
CCCS(=O)(=O)c1nc(S(=O)(=O)c2ccc(C)cc2)c(N2CCC(C)CC2)s1	43	.	.	-9.0	.
O=C(NC12CC3CC(CC(C3)C1)C2)c1ccc(-c2ccc(Br)cc2)o1	99	-27	-16	4.1	6.6µM*
COc1ccc(N2C(=O)CC(c3ccc([N+](=O)[O-])cc3)C2=O)cc1 (centres undefined)	11	.	.	-1.7	.
S=C(c1cn(CCOc2ccccc2)c2ccccc12)N1CCCC1	2	-27	30	-4.4	-7%
N#CCSc1nnc2ccc3ccccc3n12	-11	-41	-1	0.2	-1%
O=C(CCC1CCCN(C(=O)C2CCCC2)C1)NCc1ccc(F)c(F)c1 (centres undefined)	-2	.	-2	4.5	8%
COC(=O)c1ccc(C2NC(=S)N(c3ccccc3)C(C)=C2C(=O)Nc2ccccc2OC)cc1 (centres undefined)	3	-20	21	2.4	5%
CCNc1nc(NCC)n2c(SCC(=O)Nc3ccc(Br)cc3F)nnc2n1	-2	.	.	5.1	.
O=S(=O)(NCCN1CCOCC1)c1ccc(Cl)s1	-3	.	9	2.0	9%
CC(=O)Nc1cccc(NC(=O)COc2nncc3ccccc23)c1	-4	2	5	-0.2	5%
O=C(Cn1cccn1)N1CCCC(N2CCN(c3ccccc3F)CC2)C1 (centres undefined)	-6	.	.	-0.7	.
O=C(N/N=C/c1ccccc1[N+](=O)[O-])c1ccncc1	87	.	.	-1.4	.
Cc1ccc(NC(=O)NC2CCCc3ccccc32)cc1 (centres undefined)	-12	.	.	-0.6	.
CCN(CC)CCNC(=O)c1cn(CC)c2cc(N3CCN(C)CC3)c(F)cc2c1=O	-1	.	.	1.0	.
O=C1/C(=C\c2ccc(O)c(O)c2)C(c2ccccc2)=NN1c1ccccc1	.	.	-35	3.6	-3%
OCCC1CN(Cc2cn[nH]c2C2CCCCC2)CCN1C1CCCCC1 (centres undefined)	-1	.	2	-3.7	11%
Cc1cc(-c2nn(-c3ccccc3F)cc2CNCCc2cnccn2)c(C)s1	-2	.	-2	-0.1	-1%
CN(C)S(=O)(=O)N1CCN(c2ccc([N+](=O)[O-])c(N3CCCCC3)c2)CC1	0	.	-3	-3.5	8%
CCC(C(=O)Nc1ccc(S(=O)(=O)Nc2ncccn2)cc1)c1ccccc1 (centres undefined)	3	.	.	3.0	.
COc1cccc(NC(=O)N2CCCC2C(=O)NCc2ccccc2)c1 (centres undefined)	-1	.	0	-3.1	-7%
Cc1c(C(=O)Nc2ccc3c(c2)OCO3)oc2ccccc12	19	.	.	6.4	.
Cn1nnc2cc(NC(=O)Nc3cccc(Cl)c3)ccc21	0	.	.	-0.5	.
CN(C)C(=S)SCCn1c(N)nc(N(C)C)nc1=O	4	.	.	-2.8	0%
O=C1c2ccccc2NC(c2ccccc2O)N1O (centres undefined)	12	.	.	-31	.
COc1ccc(Cl)cc1C(=O)Nc1ccccc1N1CCN(C(=O)C(C)C)CC1	99	-22	-14	11	-6%
CCc1ccccc1Nc1nc2ccccc2n1C(C)C	0	.	-1	2.6	-4%
c1ccc(-c2n[nH]c(-c3ccccn3)n2)cc1	99	-3	-20	-2.7	7%
COC/C=C/C1=CC2=CC(=O)C(C)(OC(=O)c3cnc4ccccc4n3)C(=O)C2=CN1CC(C)C (centres undefined)	-7	.	.	7.4	-3%
COc1ccc(CNC(=O)OCCN2CCN(S(=O)(=O)c3ccc(C)cc3)CCC2=O)cc1	-3	-4	9	-3.0	-3%
CC(=O)Oc1ccc2ccc(=O)oc2c1	-1	.	5	-73	1%
CCOC(=O)C1=C(CN2CCCCCC2)NC(=O)NC1c1ccc2c(c1)OCO2 (centres undefined)	-1	.	-9	-1.1	0%
O=C(O)C1=C[C@H](c2ccc(F)cc2)C[C@H](OCCCCO)O1	-2	.	.	0.3	-9%
O=C(N/N=C/C(Br)=C/c1ccccc1)c1cccs1	1	.	-1	4.7	4%
O=C1C(=O)N(CCc2c[nH]c3ccccc23)C(c2cccnc2)/C1=C(/O)c1ccccc1 (centres undefined)	-6	.	2	-0.2	-8%
Cc1nc(C)c(C(=O)NNS(=O)(=O)c2ccc([N+](=O)[O-])cc2)s1	4	-22	-3	-0.3	4%
CC(C)(C)c1ccc(C(=O)Nc2ccc(NC(=O)c3ccco3)cc2)cc1	-7	2	-12	2.2	-8%
O=C(NCc1ccc(Cl)cc1)c1ccc(CS(=O)Cc2cccc(Cl)c2)o1 (centres undefined)	-10	.	.	5.2	.
COCC1CCN(C(=O)C2CCN(c3nc(-c4ccccc4)nc4c3CCC4)CC2)C1 (centres undefined)	-10	.	.	-0.1	.
Cc1cc(C)c(NC(=O)CN2C(=O)NC(CCc3ccccc3)C2=O)c(C)c1 (centres undefined)	5	.	7	-2.0	3%
COc1ccc(/C=N/S(=O)(=O)CCc2ccccc2)c(OC)c1	-3	-24	-10	1.5	1%
Cc1cc(Cl)ccc1C(=O)C1CCCN(C(=O)c2ccoc2)C1 (centres undefined)	-14	.	9	3.5	6%
Brc1ccccc1OCCOCCOc1cccc2cccnc12	-10	-22	-1	4.8	1%
O=C(Cn1c(=O)oc2ccccc21)N1CCN(c2ccc(N3CCOCC3)nn2)CC1	8	-46	-1	-4.0	3%	Arbovirus inh repeat=-1
CCOc1ccc(S(=O)(=O)Nc2ccc(C(=O)NCC(c3ccco3)N3CCCCC3)cc2)cc1 (centres undefined)	-3	.	.	2.1	.
CC1(C(=O)NC2CCCC2)CCC(=O)N1Cc1ccc2c(c1)OCO2 (centres undefined)	0	-30	1	30	3%
CCCNC(=O)c1onc(CSc2ccccc2)c1C(=O)NCCC	-5	.	.	2.0	.
CC1=C(C(=O)OCc2ccc3c(c2)OCO3)C(c2ccc(Cl)cc2)NC(=O)N1 (centres undefined)	-4	0	7	-0.6	10%	Arbovirus inh repeat=-5
CCOC(=O)c1ccc(NC(=O)c2ccnn2C)cc1	-14	.	.	-0.3	.
O=C(Nc1ccc2c(c1)nc1n2CCCCC1)c1cc(S(=O)(=O)N2CCOCC2)ccc1Cl	-8	-40	4	0.6	-1%
COc1ccccc1N1C(N)=NC(N)=NC12CCCCC2	2	.	.	0.3	.
Cc1[nH]n(-c2ccc(Cl)cc2)c(=O)c1C=NC12CN3CN(CN(C3)C1)C2	3	-1	0	-2.3	4%
CCOC(=O)C1CCN(C(=O)Cn2cnc3sc(C)c(S(=O)(=O)N4CCCCC4)c3c2=O)CC1	-1	.	.	2.1	.
CCn1cc(C(=O)Nc2ccc(Cl)cc2Cl)cn1	-4	.	.	2.6	.
O=C(OCc1cccc(Cl)c1)c1cc([N+](=O)[O-])ccc1N1CCOCC1	25	.	.	8.8	.
Cc1ccc(-c2nc(CN3CCN(C(=O)C4CCCO4)CC3)cs2)cc1 (centres undefined)	-12	.	.	0.5	.
CCNC(=O)C(=O)N1CCC2(CC1)OCCN2S(=O)(=O)c1ccc(C)cc1	-6	.	.	-0.1	.
COc1ccccc1NC(=O)CCCN1C(=O)C(c2ccccc2)Oc2cccnc21 (centres undefined)	-2	.	.	3.3	.
CCC(=O)Oc1ccc(C(=O)Nc2ccc3c(c2)OCO3)cc1	-10	.	-7	-4.2	9%
Cc1cc(=O)[nH]c(N/N=C/c2cc(C)n(-c3ccccc3)c2C)n1	-8	.	.	0.3	-3%
Going on with the list:
SMILES	Mtb bLac sens	YopH inh	Arbovirus inh	RecA splice inh	Mtb H37Rv	others
O=c1[nH]c(=O)n(CCC2=CCCCC2)c(O)c1C=NCc1cccnc1	-2	-25	4	1.1	-5%
C=CCN(c1ccccc1)S(=O)(=O)c1ccc2[nH]cc(C(=O)NCCOC)c(=O)c2c1	6	.	.	-3.3	.
Cc1c(Br)c(=O)oc2c(Br)c(O)ccc12	-10	.	4	i	-5%
Cc1ccc(Oc2ncnc3sccc23)cc1	8	-14	6	0.3	9%
Cc1cccc(OCCC(=O)OCC(=O)N2CCc3ccccc32)c1	-4	-37	2	4.0	-9%
Cc1ccc(S(=O)(=O)Nc2ccc3c4c(cccc24)CC3)c(C)c1	10	-36	.	-1.3	-1%
Cc1ccn(C(CC(=O)c2ccc(Br)cc2)C(=O)O)n1 (centres undefined)	-1	-15	3	-2.4	-1%
Cc1ccc(NC(=S)Nc2cccc(S(=O)(=O)Nc3c(C)n(C)n(-c4ccccc4)c3=O)c2)cc1	1	.	0	0.8	0%
Cc1cc([N+](=O)[O-])nn1CC(=O)N1CCOCC1	-3	.	3	-1.0	-3%
COc1ccc(NC(=S)Nc2ccc3nsnc3c2)cc1	3	-22	-12	40*	?
COc1ccccc1NC(=O)COc1ccc(/C=N/NC(=O)c2cccnc2)cc1	-8	.	.	0.6	.
CC1(C)C(CSc2nc3ccccc3[nH]2)C1(Cl)Cl (centres undefined)	98	.	1	8.6	27%
COc1ccc(-c2cc3nc(C4CCN(C(=O)OC(C)(C)C)CC4)c(C(=O)O)cn3n2)cc1	3	-61	13	1.5	7%
Cc1cc(NC(=O)CSc2cn(C)c3ccccc23)no1	9	-39	3	2.8	7%	Arbovirus inh repeat=-2
C#CCOCCOCCOCCNc1nc(N2CCN(C(=O)[C@H]([C@@H](C)CC)n3cc([C@@H](N)CC(C)C)nn3)CC2)nc(N2CCN(C(=O)[C@H](Cc3cc4ccccc4[nH]3)n3cc([C@@H](N)Cc4ccc(O)cc4)nn3)CC2)n1	99	.	-9	4.5	.
OC1(C(F)(F)F)CC(c2ccc3ccccc3c2)=NO1 (centres undefined)	-3	.	.	2.3	-7%
CC(C)c1ccc2c(c1)C(=O)NC(C)(C)C2	-4	-28	2	0.1	4%	Arbovirus inh repeat=2
C=CCNC(=O)C1CC(=O)N(c2ccc(OCc3ccc(F)cc3)cc2)C1 (centres undefined)	4	.	.	0.6	.
COc1ccc(S(=O)(=O)N(CC(=O)NCCCN(C)C)c2ccc(C)cc2)cc1OC	-5	-33	3	-0.8	-6%
O=C(C(NS(=O)(=O)c1cccc2nsnc12)c1ccccc1)N1CCN(c2ccccc2)CC1 (centres undefined)	1	-41	-2	3.5	17%
Cc1cc2cc(CN(Cc3cccs3)C(=S)NCC3CCCO3)c(=O)[nH]c2cc1C (centres undefined)	3	-24	-24	3.6	7%
Cc1cc(C)n2nc(S(=O)(=O)NC(C)(C)C)nc2n1	2	.	1	-2.9	5%
Cc1ccc2[nH]c(CNC(=O)c3ccc(F)cc3)cc2c1	2	.	.	-0.2	.
CCOc1ccc(N2C(=O)CC(NCCNc3ccc([N+](=O)[O-])cn3)C2=O)cc1 (centres undefined)	-9	.	0	1.4	3%
Nc1nc(CSc2nc3ccccc3s2)nc(N2CCCCC2)n1	7	-26	12	-1.0	1%
Cc1ccnc(NC(=O)CCC(=O)N(CC(=O)NC2CCCCC2)C2CCCC2)c1	-5	.	.	-5.6	5%
C=C(C)COc1ccc2c(C)c(C)c(=O)oc2c1OCC(=C)C	.	-41	5	2.3	7%
c1ccc(CNc2ncnc3c2cnn3-c2ccccc2)cc1	-6	-23	-22	-4.2	-3%
CC(C)Sc1nc2ccccc2n1CC(=O)O	-3	.	1	-0.5	-4%

Molecules above that contain an NH in an aromatic ring, in the order listed:
SMILES	Mtb bLac sens	YopH inh	Arbovirus inh	RecA splice inh	Mtb H37Rv	others
OCCC1CN(Cc2cn[nH]c2C2CCCCC2)CCN1C1CCCCC1 (centres undefined)	-1	.	2	-3.7	11%
c1ccc(-c2n[nH]c(-c3ccccn3)n2)cc1	99	-3	-20	-2.7	7%
O=C1C(=O)N(CCc2c[nH]c3ccccc23)C(c2cccnc2)/C1=C(/O)c1ccccc1 (centres undefined)	-6	.	2	-0.2	-8%
Cc1[nH]n(-c2ccc(Cl)cc2)c(=O)c1C=NC12CN3CN(CN(C3)C1)C2	3	-1	0	-2.3	4%
Cc1cc(=O)[nH]c(N/N=C/c2cc(C)n(-c3ccccc3)c2C)n1	-8	.	.	0.3	-3%
O=c1[nH]c(=O)n(CCC2=CCCCC2)c(O)c1C=NCc1cccnc1	-2	-25	4	1.1	-5%
C=CCN(c1ccccc1)S(=O)(=O)c1ccc2[nH]cc(C(=O)NCCOC)c(=O)c2c1	6	.	.	-3.3	.
CC1(C)C(CSc2nc3ccccc3[nH]2)C1(Cl)Cl (centres undefined)	98	.	1	8.6	27%
C#CCOCCOCCOCCNc1nc(N2CCN(C(=O)[C@H]([C@@H](C)CC)n3cc([C@@H](N)CC(C)C)nn3)CC2)nc(N2CCN(C(=O)[C@H](Cc3cc4ccccc4[nH]3)n3cc([C@@H](N)Cc4ccc(O)cc4)nn3)CC2)n1	99	.	-9	4.5	.
Cc1cc2cc(CN(Cc3cccs3)C(=S)NCC3CCCO3)c(=O)[nH]c2cc1C (centres undefined)	3	-24	-24	3.6	7%
Cc1ccc2[nH]c(CNC(=O)c3ccc(F)cc3)cc2c1	2	.	.	-0.2	.
